Compound activity as filed in PubChem BioAssay.
CapD inh: inhibitors of Bacillus anthracis CapD enzyme | purified CapD enzyme, fluorescence intensity read-out; active compounds read low; some hits fall short of the stated cut | z-score (concentration not given with the values) | 140,000 compounds, 0.23% hits;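 active = z-score under -4 in either of two replicates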;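 also: stock transfer was 100 nL into about 40 µL; score is relative to mean and spread of the plate; one replicate is shown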
AID504770: E. coli YBA685 growth inhibition, screen for V. cholerae RctB inhibitors; z-score (no concentration beside the values); 130,000 compounds, 0.27% hits; E. coli YBA685 rctB-dependent plasmid, OD600 growth, 3 h; active compounds read low;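 active = z-score under -2 on both plates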;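 also: wells of about 30 µL received 100 nL stock; score is relative to mean and SD of the test wells; the first replicate is given; strong numbers were not always called active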
An asterisk follows results filed as active; . = not tested or not shown.

Results follow in this order: CapD inh, AID504770
- CSc1cccc(NC(=O)c2ccc(=O)n(C)n2)c1
    ., -0.05
- CC(NS(=O)(=O)c1ccc(Br)cc1)C(N)=O (stereo not given)
    0.02, .
- O=C(NC1CC1)c1ccc(C2SCC(=O)N2Cc2ccco2)cc1 (stereo not given)
    ., -0.95
- CCN(CC)C(=O)CSc1nc2ccccc2c(=O)n1CCc1ccc(OC)c(OC)c1
    -0.67, -0.8
- Cc1ccc(S(=O)(=O)N2CCN(C3CC(=O)N(Cc4ccccc4)C3=O)CC2)cc1C (stereo not given)
    ., 0.1
- CC(=C\c1ccccc1)/C=C1/SC(=S)N(CCC(=O)N2CCCc3ccccc32)C1=O
    -0.03, .
- CSc1ccc(Cn2cccc2C2=NC(c3ccccc3)CO2)cc1 (stereo not given)
    0.32, -0.85
- CCCc1cc(=O)[nH]c(SCc2ccccn2)n1
    ., -0.35
- O=C(O)/C=C/C(=O)Nc1ccc(OC(F)(F)F)cc1
    1.1, 0.4
- C=CCN(CC=C)C(=O)C(C)N1CCN(C2CCCCC2)CC1 (stereo not given)
    ., -0.7
- CCCCOc1ccc(C2C(C#N)=C(N)Oc3c2c(=O)oc2ccccc32)cc1OC (stereo not given)
    1.4, .
- CC1Cc2ccccc2N1C(=O)CSc1nnnn1Cc1ccccc1 (stereo not given)
    ., 1.1
- COC(=O)c1cc2c(s1)CN(c1cc(C)cc(C)c1)C2
    0.005, 1.9
- CCNC(=O)N1c2ccccc2C(C)(c2ccccc2)CC1(C)C (stereo not given)
    -0.27, .
- CCOc1ccc(CCC(=O)O)cc1
    0.025, -0.35

Structures from the list above with a COOH group, in the order listed:
Results follow in this order: CapD inh, AID504770
- O=C(O)/C=C/C(=O)Nc1ccc(OC(F)(F)F)cc1
    1.1, 0.4
- CCOc1ccc(CCC(=O)O)cc1
    0.025, -0.35

The results go on:
Results follow in this order: CapD inh, AID504770
- CCOC(=O)CSc1nc(Nc2ccccc2)c2cnc(N3CCOCC3)nc2n1
    0.87, 0.7
- Cc1cc(-n2c(SCC(=O)Nc3ccc(Br)cc3)nc3n[nH]c(C)c3c2=N)ccc1Cl
    -0.62, .
- O=C(CC1Cc2ccccc2C1)NCc1nc2ccccc2[nH]1
    -0.41, .
- COCCNC(=O)c1ccc2c(=O)n3c(nc2c1)CCCCC3
    3, -0.55
- COc1ccc(C2CC(=O)C3=C(C2)NC(C)=C(C(=O)OC(C)C)C3c2ccc([N+](=O)[O-])cc2)cc1OC (stereo not given)
    -0.53, .
- COc1cccc(NC(=O)CC2SC(N)=NC2=O)c1 (stereo not given)
    -0.2, 1.4
- COc1ccc(-n2c(=S)[nH]c3ccccc3c2=O)cc1
    -0.055, 1.7
- CC(=O)N1CCc2c(sc(NC(=O)c3ccco3)c2C(N)=O)C1
    ., -0.55
- CCCCN(C)Cc1c(O)ccc2c(=O)c(-c3ccccc3OC)coc12
    102, -1.6
- CCCN(C(=O)C1c2ccccc2C(=O)N(CC(C)C)C1c1cccs1)c1ccccc1C (stereo not given)
    -0.91, 0.05
- Cc1cc(S(=O)(=O)NCC2CCN(C(=O)OC(C)(C)C)CC2)c(C)o1
    0.75, -1.3
- N#Cc1ccsc1NC(=O)CSc1ccccn1
    ., -0.45
- O=C(CSc1nc2ccccc2n1S(=O)(=O)c1cccc([N+](=O)[O-])c1)Nc1ccc(Br)cc1F
    0.43, .
- Cc1c(C(c2ccc(N(C)C)cc2)c2c(C)n(C)n(-c3ccccc3)c2=O)c(=O)n(-c2ccccc2)n1C
    0.26, .
- c1ccc(-c2ccc(-c3nc4ccc(Cc5ccc6nc(-c7ccc(-c8ccccc8)cc7)c(-c7ccccc7)nc6c5)cc4nc3-c3ccccc3)cc2)cc1
    1.7, .
- O=C(Nc1cc(F)ccc1F)c1cc(-c2ccc(F)cc2)nc2ccccc12
    2.8, 1.5
- O=C1CSC(c2ccccn2)N1c1ccc(C(F)(F)F)cc1 (stereo not given)
    0.075, .
- Cc1cccc(-n2cnc3cc(C(=O)NC4CCCC4)ccc32)c1
    -0.55, 1.9
- O=C(Cc1n[nH]c(=O)c2ccccc12)OCc1nnc(-c2ccc(Cl)cc2)o1
    ., 0.6
- CCOC(=O)C1CC(=O)C(C(=O)OCC)CC1=O (stereo not given)
    -0.62, -0.85
- Nc1c(C(=O)Nc2ccc(Br)cc2)sc2nc3c(c(-c4ccco4)c12)CCCC3
    -0.1, .
- CC12CCC(C(=O)Nc3ccc(Br)cn3)(OC1=O)C2(C)C (stereo not given)
    -0.28, 0.75
- O=C1NC(=O)C(=Cc2ccc(Br)cc2)C(=O)N1
    -0.03, -0.1
- N#CCc1ccc(NC(=O)C2=CCCCC2C(=O)O)cc1 (stereo not given)
    -0.88, -0.9
- COc1cccc(C2C(N3C(=O)c4ccccc4C3=O)C(=O)N2c2ccc(C)cc2C)c1 (stereo not given)
    -0.17, .
- Cc1cc(C(=O)COc2ccc(NC(=O)c3ccco3)cc2)c(C)n1Cc1ccccc1
    ., 0.5
- Cc1ccc(-c2nnn(CC(=O)c3ccc(Cl)s3)n2)cc1
    ., 0.95
- Cc1nn(C(C)(C)C)c2c1C(c1ccncc1)C1=C(CCCC1=O)N2 (stereo not given)
    ., -0.55
- CCn1ccnc1C(O)c1ccc(OC)cc1 (stereo not given)
    1.2, 0.1
- CCc1ccc(NC(=O)CC(NCc2ccco2)C(=O)O)cc1 (stereo not given)
    ., -0.3

Next section; the last 2 above are carried over.
Results follow in this order: CapD inh, AID504770
- CCn1ccnc1C(O)c1ccc(OC)cc1 (stereo not given)
    1.2, 0.1
- CCc1ccc(NC(=O)CC(NCc2ccco2)C(=O)O)cc1 (stereo not given)
    ., -0.3
- CC(C)C1CC(=O)C=C2CCCCC21 (stereo not given)
    -0.2, -0.45
- Cc1n[nH]c(C)c1S(=O)(=O)N1CCCC(C(=O)NC2CCCCC2)C1 (stereo not given)
    -0.02, -0.25
- c1ccc(NCCCNc2ccccc2)cc1
    0.45, -0.05
- COc1ccc(NC(=O)C(C)n2c(=O)cc(C)c3c(C)nn(-c4ccccc4)c32)cc1OC (stereo not given)
    0.88, 0.05
- Cc1cc(C(=O)N2CCc3ccccc3C2)c2ccccc2n1
    ., 0.35
- COc1ccc(/C=C/C(=O)NCC(C)C)cc1OC
    13, 0.15
- Cc1onc(-c2c(Cl)cccc2Cl)c1C(=O)NC(=S)N1CCN(c2ccccn2)CC1
    -0.045, 1.6
- O=C(CNCc1ccco1)Nc1ccc(Oc2ccccc2)cc1
    ., -0.75
- Cc1nn(-c2ccccc2)c2c1N(C(=O)CCC(=O)N1CCOCC1)CCS2
    0.77, 1
- O=C(O)c1ccc(COc2ccc(Cl)cc2CO)cc1
    1.2, -0.6
- Cc1cc(C)c2oc(-c3ccc(NC(=O)c4ccc5c(c4)OCCO5)cc3)nc2c1
    10, .
- Cc1ccccc1OCc1nc(C#N)c(NC(C)c2ccccc2)o1 (stereo not given)
    0.68, -0.45
- CCN1CCCC1CN1CNC(=S)NC1 (stereo not given)
    0.58, -0.25
- COc1ccc(-c2nc(-c3ccc(-c4ccccc4)cc3)c(-c3ccc(-c4ccccc4)cc3)[nH]2)cc1
    14, .
- COc1ccc(C(=O)O/N=C/c2ccc(OCc3ccccc3)cc2)cc1
    0.59, .

Part of the list above, set out differently:
canonical_smiles | CapD inh | AID504770
c1ccc(NCCCNc2ccccc2)cc1 | 0.45 | -0.05
COc1ccc(NC(=O)C(C)n2c(=O)cc(C)c3c(C)nn(-c4ccccc4)c32)cc1OC (stereo not given) | 0.88 | 0.05
Cc1cc(C(=O)N2CCc3ccccc3C2)c2ccccc2n1 | . | 0.35

(continued)
Results follow in this order: CapD inh, AID504770
- O=C(CN1c2cccc3cccc(c23)S1(=O)=O)NCc1ccccc1
    -0.92, -1.6
- CS(=O)c1sc(Cl)c2c1C(=O)CCC2 (stereo not given)
    -0.18, .
- O=C(O)C1C2CCCCC21 (stereo not given)
    ., -0.85
- COC(=O)c1cc(=O)c2cccc(OC)c2[nH]1
    38, .
- c1ccc(C(c2ccccc2)N2CC(Sc3nc4ccccc4s3)C2)cc1
    0.26, 0
- CN(C)c1ccc(/C=C(\C#N)S(=O)(=O)c2cccs2)cc1
    -0.38, 1.6
- O=C(C(c1ccccc1)c1ccccc1)N1CCC(c2nc(-c3cccs3)no2)CC1
    0.12, .
- COc1cc(/C=C/C2=NC(=O)C(C)(C)O2)ccc1O
    -1.8, -0.4
- Nc1ccc(-c2cnc3ccccc3n2)cc1
    -1.1, .
- COC(=O)N/N=C/c1cccs1
    -0.49, -1.1
- CC1CC(c2ccccc2)n2ncnc2N1C(=O)c1ccccc1 (stereo not given)
    ., -0.35
- CCC(C)NC(=O)c1ccc(N2CC3CC(C2)c2cccc(=O)n2C3)c(NC(=O)c2cc(OC)c(OC)c(OC)c2)c1 (stereo not given)
    -0.46, .
- FC(F)(F)c1cc(C(F)(F)F)c2ccc(Oc3ccccc3)nc2n1
    -0.36, .
- c1csc(-c2ccn[nH]2)c1
    0.36, 1.1
- O=C(ON1C(=O)C2C3c4ccccc4C(c4ccccc43)C2C1=O)C1CC1 (stereo not given)
    -0.35, .

Exported as labelled records: part of the list above
COC(=O)N/N=C/c1cccs1
  CapD inh: -0.49	AID504770: -1.1

CC1CC(c2ccccc2)n2ncnc2N1C(=O)c1ccccc1 (stereo not given)
  CapD inh: .	AID504770: -0.35

Other entries follow:
Results follow in this order: CapD inh, AID504770
- Cc1ccc(C2N(c3ccc(Br)cc3)C(=O)CS2(=O)=O)cc1 (stereo not given)
    -0.025, .
- Cc1cc(C)c(/C=N/NC(N)=O)c(C)c1/C=N/NC(N)=O
    ., -3.2*
- COc1ccc(CCCOC(=O)NCCCN2CCN(C)CC2)cc1
    -0.93, .
- O=C(Cc1ccc(Cl)cc1)Oc1ccc2c(c1)OCO2
    ., 1.7
- COc1ccc(C(=O)NNC(=O)OC/C=C/COCc2ccccc2)cc1
    -0.25, .
- CC(C)c1ccc2c(c1)c1c3n2CCN(CC(N)=O)C3CCC1 (stereo not given)
    1.9, -0.45
- Cc1cccc(N2CCN(C(C)c3nc4ccccc4c(=O)[nH]3)CC2)c1C (stereo not given)
    ., -0.2
- CC(=O)N1C(=S)NC(=O)/C1=C\c1ccccc1Cl
    -0.33, -0.7
- Cc1ccccc1N1C(=O)C(Oc2ccc(Cl)cc2)C1CNCC1CCCO1 (stereo not given)
    -0.39, -0.65
- O=C(OCC(=O)N1CCN(c2ccccc2)CC1)c1ccc(-c2ccc(O)cc2)cc1
    ., -0.45
- O=c1c2cc(N3CCOCC3)ccc2nc(SCc2ccc(F)cc2)n1CCc1ccccc1
    -1.4, 2
- O=c1[nH]c(Cn2nnc(-c3ccccc3)n2)nc2ccccc12
    ., 0.3
- O=C(N/N=C/CSc1nc2ccccc2o1)c1ccccc1
    ., -0.7
- Cc1ccc2nsnc2c1S(=O)(=O)NC(C)c1ccccc1 (stereo not given)
    -0.51, 0.5
- O=C(CS(=O)(=O)Cc1ccccc1)Nc1ccccn1
    ., -0.1
- CCOc1ccc(-c2c(C#N)c(N)nc(SCC(=O)c3ccccc3)c2C#N)cc1
    2.8, .
- Nc1nc(SCc2cccc(Br)c2)n[nH]1
    -0.05, -0.8
- COc1cccc(C2C(N3C(=O)c4ccccc4C3=O)C(=O)N2c2ccc(Br)cc2)c1 (stereo not given)
    -0.3, .
- CSc1ccc2nnc(-c3ccccc3)n2n1
    7.3, -0.85
- Cc1nn(-c2ccccc2)c2sc(C(=O)N(CC(=O)NC3CCCC3)C3CC3)cc12
    ., -0.4
- COc1ccc(-c2noc(-c3cccc(F)c3)n2)cc1
    0.93, 0.3
- c1csc(C2CC(C3SCCS3)CS2)c1 (stereo not given)
    -0.46, .
- COc1ccc(CN(C(=O)CN2C(=O)c3ccccc3S2(=O)=O)c2ccccc2O)cc1
    0.32, .
- COc1ccc(CCNS(=O)(=O)c2ccc(F)c(C(=O)Nc3ccccc3C(F)(F)F)c2)cc1OC
    0.81, .
- COc1cc(-c2nc3ccc(Br)cc3c(=O)o2)ccc1OC(C)=O
    -0.33, -0.55
- Cc1ccc(C2SC(=O)NC3=C2C(=O)c2ccccc23)cc1 (stereo not given)
    -0.35, -0.65
- CC1CCc2c(sc3nc(SCC(N)=O)n(-c4ccccc4)c(=O)c23)C1 (stereo not given)
    -1.1, -0.2
- Cn1cnnc1SCC(=O)N1c2ccccc2Sc2ccccc21
    0.01, .
- Cc1cc(OCC(=O)N/N=C/c2ccc(I)o2)cc(C)c1Cl
    ., -0.25
- C=CC(=O)N1c2c(OC)cccc2C2=C(SC(C(=O)OC)=C(C(=O)OC)C23SC(C(=O)OC)=C(C(=O)OC)S3)C1(C)C
    37, .
- CCC(C(=O)N1CCN(c2ncccn2)CC1)n1ccc2cc(S(=O)(=O)N3CCCCC3)ccc21 (stereo not given)
    0.42, 0.75
- CCn1c(SCC(=O)Nc2ccc3c(c2)OCO3)nnc1C(C)NC(=O)c1ccccc1F (stereo not given)
    ., -0.4
- CCC1(C)N=c2c(c(=O)n(C)c(=O)n2C)=NO1 (stereo not given)
    ., 0.3
- CC(=O)c1cc2c(cc1NC(=O)c1cnn3c(C(F)(F)F)cc(-c4ccc(C)cc4)nc13)OCO2
    0.17, .

Random draw from the library; overall some 0.39% were active at least once.
